CSN deneddyl inh – CSN deneddylation inhibition; Q92905; AID 651999; inhibition, % at 12.5 µM; Purified CSN, SCF-Nedd8-OG deneddylation, fluorescence polarization; hit rate 0.38% among 360,000;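 active = pattern-corrected inhibition above about 35%, with an unprinted fluorescence ratio check between 0.5 and 1.5, limit read from the data, passing the limit was not always enough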;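 also: 0% = enzyme with substrate and 100% = substrate without enzyme; some results filed as inactive read as strong as hits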
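Assay system: purified human Csn5 enzyme expressed in HEK293T cells; measure: % inhibition; also added: SCFSkp2-Nedd8OG substrate at 10 nM final; technique: fluorescence polarization; times: reaction 90 min, room temperature; medium: Tris buffer pH 7.5, NaCl, DTT, Tween-20, trehalose, ovalbumin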
FAS-TE inh – blocks the thioesterase domain of human fatty acid synthase. P49327. recombinant FAS-TE, OMFH fluorogenic substrate, fluorescence endpoint. inhibition, % at 15 µM. hit rate 0.67% among 360,000. AID 602261;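 active = compounds whose normalised, plate-corrected inhibition of enzyme fluorescence in the single-dose primary screen is 50% or more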;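 also: 0% = DMSO with enzyme and 100% = substrate without enzyme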
PABP1 MLLE inh – inhibitors of microRNA-mediated deadenylation, human PABP1 MLLE binding. AID 588489. GST-MLLE / FITC-PAM2 fluorescence polarization. hit rate 0.36% among 360,000. inhibition, % at 20 µM. P11940; in the data active = inhibition above about 35%, passing the limit was not always enough;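 also: plate controls were DMSO wells with GST-MLLE for no effect and wells lacking GST-MLLE protein for full effect; some results filed as inactive read as strong as hits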
Target sequence (P11940 whole entry, looked up): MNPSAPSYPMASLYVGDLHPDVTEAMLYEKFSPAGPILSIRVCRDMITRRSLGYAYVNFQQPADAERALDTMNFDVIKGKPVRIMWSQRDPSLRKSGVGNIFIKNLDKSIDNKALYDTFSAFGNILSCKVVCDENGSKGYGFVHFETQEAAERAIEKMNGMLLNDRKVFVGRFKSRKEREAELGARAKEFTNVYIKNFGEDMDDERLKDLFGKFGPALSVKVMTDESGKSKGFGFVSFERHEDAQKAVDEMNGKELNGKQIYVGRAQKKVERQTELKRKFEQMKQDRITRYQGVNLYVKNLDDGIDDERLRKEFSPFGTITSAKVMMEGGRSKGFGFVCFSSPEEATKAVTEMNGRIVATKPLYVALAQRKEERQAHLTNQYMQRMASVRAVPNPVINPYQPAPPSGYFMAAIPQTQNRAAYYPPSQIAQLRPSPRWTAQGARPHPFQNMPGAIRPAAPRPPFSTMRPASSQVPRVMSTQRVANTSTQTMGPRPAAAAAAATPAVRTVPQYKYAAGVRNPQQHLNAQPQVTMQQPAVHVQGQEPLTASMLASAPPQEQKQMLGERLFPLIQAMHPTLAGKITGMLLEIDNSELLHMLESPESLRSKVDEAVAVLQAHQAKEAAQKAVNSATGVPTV
Rpn11 block – Rpn11 (human) deubiquitinase inhibition | human 26S proteasome, Ub4-pepOG fluorescence polarization; 20S core pre-blocked with epoxomicin | hit rate 0.59% among 360,000 | calls only at 20 µM | O00487;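 active = inhibition at 20 µM, scaled to each plate's controls, above about 33%, limit read from the data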
E coli Lon inh – inhibits E. coli Lon protease. P0A9M0. purified E. coli Lon protease, fluorescence polarization. inhibition, % at 7.94 µM. hit rate 0.42% among 360,000. AID 602123; in the data active = inhibition above about 13%, passing the limit was not always enough;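 also: 0% = enzyme with probe and DMSO and 100% = no enzyme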
* hit, by the source's call; i = inactive.

(1) O=c1c(Cl)c(O)ccn1C1OC(CO)C(O)C1O (stereo unspecified)
(2) C=C(CN(C)C)C(=O)c1ccc2c(c1)OCO2
(3) O=Cc1cn(-c2ccccc2)nc1-c1ccccc1
(4) c1ccc(CN2CCC3CC2c2cc(N4CCOCC4)ccc23)cc1 (stereo unspecified)
(5) O=C(Cn1c(C(=O)c2ccccc2)nc2ccccc21)c1ccc(Cl)cc1
(6) CC(=O)c1cn(S(=O)(=O)c2ccccc2)c2ccccc12
(7) CC(N)C(=O)NC(CO)C(O)C(N)C=O (stereo unspecified)
(8) O=C(NC1CCC(Oc2ccc(C(=O)O)cc2)CC1)NC12CC3CC(CC(C3)C1)C2 (stereo unspecified)
(9) C#Cc1cccc(N2C(=O)C3C4C=CC(C3C2=O)C2C(=O)N(c3cccc(C#C)c3)C(=O)C42)c1 (stereo unspecified)
compound no.	1	2	3	4	5	6	7	8	9
CSN deneddyl inh	-1	-2	-4	1	3	-6	-7	-2	-2
FAS-TE inh	-6	-4	5	-8	24	3	-7	-1	-2
PABP1 MLLE inh	-3	2	-10	2	-2	0	-13	-121	5
Rpn11 block	i	i	i	i	i	i	i	i	i
E coli Lon inh	3	-9	-9	-11	5	-8	-5	-8	1

3 compounds already listed, sorted by number of heavy atoms, low to high:
(2) C=C(CN(C)C)C(=O)c1ccc2c(c1)OCO2
(3) O=Cc1cn(-c2ccccc2)nc1-c1ccccc1
(5) O=C(Cn1c(C(=O)c2ccccc2)nc2ccccc21)c1ccc(Cl)cc1
compound no.	2	3	5
CSN deneddyl inh	-2	-4	3
FAS-TE inh	-4	5	24
PABP1 MLLE inh	2	-10	-2
Rpn11 block	i	i	i
E coli Lon inh	-9	-9	5

Values in list order from the list.
FAS-TE inh for nos. 1–9 → -6, -4, 5, -8, 24, 3, -7, -1, -2
PABP1 MLLE inh for nos. 1–9 → -3, 2, -10, 2, -2, 0, -13, -121, 5
CSN deneddyl inh for nos. 1–9 → -1, -2, -4, 1, 3, -6, -7, -2, -2

This is a subset, so the mix of outcomes need not match the whole.
